# Screening results as filed in PubChem.
# Autofluor counter: counter-screen for toxin protease inhibitors: compound fluorescence | 3.1% of 360,000 active | fluorescence intensity (no concentration beside the values) | compound autofluorescence counterscreen, microsphere flow cytometry; stronger effect = higher value | AID 624483;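 active = at least 3 SD above the mean of all compounds, about 16000 in these data; inconclusive = too few beads counted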;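 note: 100 nL of 1 mM stock went into each well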
# Mtb hypoxia inh: inhibitors of hypoxia-regulated fluorescent reporter in Mycobacterium tuberculosis | M. tuberculosis hypoxia-regulated fluorescent reporter, fluorescence | 0.1% of 300,000 active | fluorescence inhibition, % (test concentration not listed);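 active = 35 to 45% if threefold the growth effect, above 45% if 1.5-fold the growth effect; inactive = the rest, general growth blockers included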;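 note: wells of about 50 µL received 100 nL stock; 0% = vehicle wells and 100% = reference inhibitor wells; whole bacteria with a GFP reporter of the hypoxia response; strong numbers were not always called active; many hits fall short of the cut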
# ugtP null kill: compounds lethal to S. aureus RN4220 ugtP deletion mutant | OD600 growth, 16 h; some inactives read as strong as hits | growth inhibition, % (concentration not given with the values) | 0.54% of 330,000 active;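 active = z-score under -3 and OD600 up to 0.15 on both plates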;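 note: plate controls were untreated wells for no effect and antibiotic for full effect; wells of about 80 µL received 100 nL stock; the first replicate is given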
# PrP 5UTR inh: suppresses PrP 5' UTR mRNA reporter expression. cell-based PrP 5' UTR mRNA reporter, plate reader. inhibition, % (no concentration beside the values). 0.35% of 340,000 active. AID 488862;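 active = every replicate at 50% or more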;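 note: 0 = median of the neutral control wells; tested in H4 reporter cells; numbers are from one replicate; inactives centre near -14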
# BJeLR viability: kills HRASV12-expressing BJeLR cells; 0.17% of 300,000 active; BJeLR (HRASV12) viability, CellTiter-Glo ATP luminescence, 48 h; reference of the scale not given here; inhibition, % (test concentration not listed); AID 1554;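 active = replicate mean above 50%; inconclusive = above 50% but judged a plate artefact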;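 note: 50 nL library stock added to about 25 µL; numbers are from one replicate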
# Sa RN4220 lethal: kills Staphylococcus aureus RN4220; AID 1259311; 0.33% of 330,000 active; inhibition, % (test concentration not listed); S. aureus RN4220 growth, OD600, 16 h;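 active = z-score of -3 or lower and OD600 up to 0.18 on both plates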;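 note: plate controls were untreated cells for no effect and reference antibiotic for full effect; stock transfer was 100 nL into about 80 µL; one replicate is shown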
# Mtb hypoxia inh growth: recorded beside Mtb hypoxia inh, whose call it bears; growth inhibition, %; measured here: M. tuberculosis growth (absorbance);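 0% = vehicle and 100% = reference antibiotic; read after six days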
# * = called active by the depositor; ? = inconclusive; / = no result given. This is a random part of the collection; 4% or so of the library scored in one or more.
SMILES,Autofluor counter,Mtb hypoxia inh,Mtb hypoxia inh growth,ugtP null kill,PrP 5UTR inh,BJeLR viability,Sa RN4220 lethal
CC(=NNC(=O)c1ccc(CN(C)S(=O)(=O)c2ccc(C)cc2)cc1)c1ccc(OC(F)F)cc1,/,2,7,-4,/,/,7.0
COc1ccc(OC)c(CCNC(=O)c2ccc(CS(=O)Cc3cccc(Cl)c3)o2)c1 (stereo not drawn),6084,2,-3,14,4,7,3.1
CCOC(=O)C1=C(N)OC2=C(C(=O)CC(C)(C)C2)C1c1ccc(C)s1 (stereo not drawn),3902,12,4,7,-10,/,7.6
COc1ccc(COc2ccc(C3C(S(=O)(=O)c4ccccc4)CON3C)cc2OC)cc1 (stereo not drawn),4682,3,7,9,-15,4,2.9
O=[N+]([O-])c1cc(-c2ccc(C(=S)N3CCOCC3)o2)ccc1Cl,4529,2,4,-12,-39,-1,16
Cc1cccc(N2CCN(S(=O)(=O)c3c(C)nc4scc(C)n4c3=O)CC2)c1C,4349,-4,-9,3,-8,-4,1.8
OCCOCCOCCn1c2ccccc2c2ccccc21,3856,13,7,-2,-36,-4,10
O=C(COc1ccccc1[N+](=O)[O-])OC1CCS(=O)(=O)C1 (stereo not drawn),4817,5,8,2,-19,-2,2.6
O=C(O)CC(NC(=O)c1ccc2c(c1)OCO2)c1cccc([N+](=O)[O-])c1 (stereo not drawn),4148,8,-3,0,-30,7,-0.5
N#CCCN(C(=O)CON=Cc1cccc([N+](=O)[O-])c1)c1ccccc1,/,15,7,5,/,/,-0.5
O=C(O)CC1NC(=O)N(C2CCCCC2)C1=O (stereo not drawn),4059,7,3,5,-5,0,3.7
O=C(NCc1ccccn1)C(C(=O)c1cccc([N+](=O)[O-])c1)n1cc(Cl)ccc1=O (stereo not drawn),4100,7,-11,2,-28,4,4.6
Cc1ccc2c(c1)C1CN(C)CCC1N2C(=O)CCCN1C(=O)c2cccc3cccc(c23)C1=O (stereo not drawn),4346,4,4,3,-16,-2,5.0
CN1CCN(c2nc3cc(C(F)(F)F)ccc3n3cccc23)CC1,6085,1,2,-9,-16,12,-4.7
COC(=O)c1[nH]c2ccc(C)cc2c1NC(=O)CN1CCN(Cc2ccccc2)CC1,4135,6,16,6,-3,1,-0.7
O=C(Nc1ccc(F)cc1F)C1CCCN(c2ncnc3c2nc2n3CCCCC2)C1 (stereo not drawn),6509,0,5,5,6,3,14
Cn1c(=O)[nH]c(=O)c2c1nc(N1CCc3ccccc3C1)n2CCSc1nc2ccccc2s1,16749*,-3,-3,-6,0,-6,1.2
CN(C1CCS(=O)(=O)C1)S(=O)C12CC3CC(CC(C3)C1)C2 (stereo not drawn),3557,21,11,-3,-23,8,-6.1
C=CCNC(=O)c1onc(CSc2ccncc2)c1C(=O)NCC=C,3788,6,10,1,-8,-1,1.4
COc1ccccc1CNC(=S)Nc1cc(C)ccc1C,4398,2,11,-4,-16,0,2.8
CC1CC(C)CN(S(=O)(=O)c2ccc(NC(=O)CCNC(=O)c3ccc([N+](=O)[O-])cc3)cc2)C1 (stereo not drawn),?,9,4,-1,/,/,1.5
COc1ccc(C(=O)NCC(C)NC(=O)c2ccc(OC)c(Br)c2)cc1Br (stereo not drawn),/,6,1,6,/,-4,2.2
CN(C)C(=S)NC(=O)C12CC3(C)CC(C)(CC(C)(C3)C1)C2,?,8,0,3,-18,-3,4.2
Cc1ccc(-n2nc(CC#N)c(C#N)c2N)cc1Cl,2202,9,9,2,8,-4,2.5
Cc1ccc(OCCNC(=O)C(C)SCC(=O)Nc2ccc(F)cc2)cc1 (stereo not drawn),4180,6,7,-1,-24,/,-1.3
COc1ccc(Nc2cc(C(=O)NCc3ccco3)c3ccccc3n2)c(OC)c1,6854,/,/,/,3,0,/
Cc1ccccc1C(=O)NN1CCOCC1,2187,0,1,5,-11,6,4.3
Cc1cccn2c(=O)c(C(=O)NC3CCCCC3C)c(O)nc12 (stereo not drawn),5711,-1,4,-3,-7,19,4.1
O=S(=O)(c1ccc(Oc2ccc(Cl)cc2)nc1)N1CCOCC1,4210,0,-4,9,-6,-5,3.9
Cc1cc(C)c(S(=O)(=O)c2ccccc2C)c(OCCN(C)C)n1,3896,15,1,2,-5,-9,1.5
Cc1ccc(S(=O)(=O)N2C(=O)CCC2C(=O)Nc2ccc3c(c2)OCCO3)cc1 (stereo not drawn),8510,6,3,2,-14,-8,-0.9
NC(=O)c1c(NC(=O)c2cccnc2Cl)sc2c1CCCC2,7474,2,3,6,-15,-4,4.7
O=C(CN1CCCCC1)N1CCN(S(=O)(=O)c2ccccc2)C1,2867,2,-2,-1,-25,-2,2.9
Cc1cc(C)nc(SCc2cc(=O)c(OC(=O)c3ccc(Br)o3)co2)n1,7710,-2,0,4,-15,15,0.3
O=C(Nc1ccc(Cl)cc1C(F)(F)F)c1ccc(Cl)cc1,5114,/,/,9,-19,-4,-0.1
CCCCn1cnc2c1c(=O)n(CC(=O)c1cc(C)n(C)c1C)c(=O)n2CC(C)C,3695,/,/,-7,-22,1,-2.3
Cc1cccc(N2CCN(S(=O)(=O)c3c(C)[nH]c(C)c3C(=O)N3CCCC3)CC2C)c1 (stereo not drawn),5614,8,11,9,-2,3,5.6
CCOC(=O)C1(Cc2cccc(F)c2)CCN(Cc2cnc(C)s2)CC1,4301,1,-3,2,-24,3,6.9
COc1ccc(C)cc1NC(=O)C1CCCN(S(=O)(=O)c2ccc(-n3cnnn3)cc2)C1 (stereo not drawn),3880,15,3,3,-14,-3,1.4
C[C@H](NC(=O)N1CCn2c1nc1ccccc12)C(=O)N1CCCCC1,5866,0,0,9,-9,-15,4.8
Cc1ccnc(NC(=O)COc2ccc(Cl)cc2)n1,5959,4,13,4,-80,-3,1.8
CCC(=NCc1ccco1)c1c(O)n(C)c(=O)n(C)c1=O,6187,3,-6,1,-50,3,-0.6
COCCCNC(=O)CCSc1ccc(Cl)cc1,3314,15,4,10,-37,0,6.6
Cc1ccc(C2Nc3ccccc3C(=O)N2CCN2CCNC2=O)cc1 (stereo not drawn),4854,3,2,0,-24,-17,-0.5
Cc1cc(C)nc(NC(=O)CCC2CCCC2)c1,4109,3,7,5,-13,7,4.4
CCOc1ccccc1NC(=S)NCCc1ccccc1,2096,-2,0,2,-6,-5,2.0
[O-]C(=C(C(=S)Nc1cccc2ccccc12)[n+]1ccccc1)c1ccc2c(c1)OCCO2,2853,7,-1,18,-12,/,4.4
CC1CCN(S(=O)(=O)c2cccc(C(=O)N(C)C3CCS(=O)(=O)C3)c2)CC1 (stereo not drawn),3819,7,9,-3,-14,0,5.2
CCC(=O)NCCc1nc2cc(NC(=O)Nc3ccccc3)ccc2n1C,3500,-1,7,-2,4,-19,0.3
CCc1ccc(-c2cc(C)no2)cc1S(=O)(=O)NCCc1ccccc1,5956,11,3,-8,-6,10,3.5

# Of the compounds above, these have a cyano group.
SMILES,Autofluor counter,Mtb hypoxia inh,Mtb hypoxia inh growth,ugtP null kill,PrP 5UTR inh,BJeLR viability,Sa RN4220 lethal
N#CCCN(C(=O)CON=Cc1cccc([N+](=O)[O-])c1)c1ccccc1,/,15,7,5,/,/,-0.5
Cc1ccc(-n2nc(CC#N)c(C#N)c2N)cc1Cl,2202,9,9,2,8,-4,2.5

# The results go on:
SMILES,Autofluor counter,Mtb hypoxia inh,Mtb hypoxia inh growth,ugtP null kill,PrP 5UTR inh,BJeLR viability,Sa RN4220 lethal
Cc1cccc(/C=C/c2nc3ccccc3c(=O)[nH]2)c1,4280,3,2,-15,-32,3,-0.9
COc1ccc(CC2C(=O)OC(C)(C)OC2=O)c(Cl)c1OC,3524,-3,-2,13,-17,-3,3.0
CC1(C)CCC[C@@]2(C)CC=C(C(=O)O)[C@@H]3C[C@]312,5577,/,/,-8,-11,8,4.0
COc1ccc(C)cc1NC(=O)CSc1ccc(-c2ccco2)nn1,5274,14,12,2,-15,-6,-1.7
O=C(COC(=O)[C@@H]1CCCN1S(=O)(=O)c1ccccc1F)c1ccccc1,4144,-8,14,1,5,1,8.4
CC(=NNC(=O)c1ccccc1)c1cc2cc([N+](=O)[O-])ccc2oc1=O,/,2,1,5,/,/,58
O=C(COc1ccccc1Cl)N1CCNC1=O,?,5,12,9,-20,/,0.4
O=C(Nc1cccc(O)c1)c1noc2c1CCCCC2,8104,6,3,3,51,17,5.5
COC(=O)C[N+](C)(C)C/C=C\c1ccccc1,4433,10,11,8,-18,-14,4.4
C=CC[N+](C)(C)CCN1C(=O)C2C(c3ccccc3)C=CC(c3ccccc3)C2C1=O (stereo not drawn),4273,7,2,-3,-19,0,-8.1

# Of the compounds above, these contain a CF3 group.
SMILES,Autofluor counter,Mtb hypoxia inh,Mtb hypoxia inh growth,ugtP null kill,PrP 5UTR inh,BJeLR viability,Sa RN4220 lethal
CN1CCN(c2nc3cc(C(F)(F)F)ccc3n3cccc23)CC1,6085,1,2,-9,-16,12,-4.7
O=C(Nc1ccc(Cl)cc1C(F)(F)F)c1ccc(Cl)cc1,5114,/,/,9,-19,-4,-0.1

# The results go on:
SMILES,Autofluor counter,Mtb hypoxia inh,Mtb hypoxia inh growth,ugtP null kill,PrP 5UTR inh,BJeLR viability,Sa RN4220 lethal
COc1ccc(C2C(C#N)=C(N)Oc3cc(C)n(Cc4ccncc4)c(=O)c32)cc1 (stereo not drawn),2996,7,-3,-1,-3,2,-17
CN1C2CCC1CC(OC1c3ccccc3CCc3ccccc31)C2 (stereo not drawn),/,14,5,-10,/,/,-4.3
C#CCOCCOCCOCCNc1nc(N2CCN(C(=O)C(Cc3ccc(O)cc3)n3cc(C(N)CC(C)C)nn3)CC2)nc(N2CCN(C(=O)C(CCCCN)n3cc(C(N)C(C)CC)nn3)CC2)n1 (stereo not drawn),/,13,16,2,/,/,1.3
O=Cc1cn(CC(=O)N2CCOCC2)c2ccccc12,12818,17,2,8,-17,1,3.9
CN(C(=O)Cc1ccc(Cl)c(Cl)c1)C(CN1CCCC1)c1cccc(OCC(=O)O)c1 (stereo not drawn),6062,-6,-2,-5,-9,/,2.9
O=C(/C=C/c1cccc([N+](=O)[O-])c1)NCCSc1ccccc1,2451,8,2,-3,-7,-9,-16
CCOc1ccc(NC(=O)N2CCC(C(=O)c3ccc(F)cc3)CC2)cc1,3261,4,13,-1,-11,3,4.4
COC(=O)c1cc(NC2c3ncccc3C(=O)N2Cc2ccccc2)cc(C(=O)OC)c1 (stereo not drawn),16375*,2,0,3,0,-3,1.0
O=C(COc1ccc([N+](=O)[O-])cc1)N(Cc1ccccc1)Cc1ccccc1,2240,0,4,11,-11,16,-2.7
COc1ccc(Br)cc1C=Nn1nnnc1N,/,1,-5,-2,/,/,4.1
Cc1[nH]c2ccc(C(=O)OCCN(C)C)cc2c1C,4280,/,/,8,-17,-11,-1.4
COCCNC(=O)C(=O)NN=C(C)CC(=O)Nc1ccc2c(c1)OCO2,/,-1,2,13,/,/,2.3
CCOC(=O)C(=O)N/N=C/c1cccc(Br)c1,4821,/,/,/,-3,-1,/
N=c1sccn1CC(=O)NCCc1ccc(Cl)cc1,3377,13,12,6,-10,7,3.0
CCCCn1c(CCC(=O)O)nc2c1c(=O)[nH]c(=O)n2CCC,/,19,9,2,-6,4,5.0
OCCC1CN(Cc2c(O)ccc3ccccc23)CCN1CCc1ccccc1 (stereo not drawn),4916,-2,9,4,-31,-5,-4.1
Nc1ccc(C(=O)NCC(=O)O)cc1,4830,8,1,0,11,/,4.3
Cc1[nH]c2ccc(C(=O)NCC(C)(C)N3CCOCC3)cc2c1C,4745,5,2,5,-14,0,5.6
CCOC(=O)c1[nH]nc(N)c1NC(=O)c1ccc(Cl)cc1Cl,5239,17,2,7,-25,5,1.9
O=C1COC(c2ccccc2)=CN1Cc1ccccc1,3836,12,3,2,-18,11,6.0
CC(=O)c1ccc(OCC(=O)OCc2cc(-c3ccco3)on2)cc1,4096,0,5,1,-9,/,2.3
CN1CCN(N=Cc2ccc(N(C)c3ccccc3)cc2)CC1,/,-6,-1,10,/,/,0.5
CC(=NNS(=O)(=O)c1ccc(Cl)cc1)c1cccc(NC(=O)c2ccncc2)c1,/,6,-8,8,/,/,-0.2
COC(=O)C1=C(C(=O)OC)C2N(C)c3ccccc3[C@@]23CC(C(=O)OC)N=C3N1 (stereo partly drawn),/,1,1,-1,/,/,5.5
O=C(COC(=O)c1cc(S(=O)(=O)N2CCCCC2)ccc1N1CCOCC1)NC1CCCCC1,2844,/,/,-7,-22,7,-0.7
